Assay outcomes as filed in PubChem BioAssay.
VDR inhibitor = inhibitors of human vitamin D receptor. VDR-SRC2-3 peptide fluorescence polarization, 2 h. Potency, µM, for the others: max response, negative = inhibition, hits mostly inhibitors. 400,000 compounds, 0.93% hits; active means well fitted inhibition curve with a large enough effect; inconclusive means small, poorly fitted or top-dose-only effect, or another doubt; inactive means no such curve, though single readings can be large or run the other way; further: series mostly up to about 120 µM
Target sequence (P11473 whole entry, looked up): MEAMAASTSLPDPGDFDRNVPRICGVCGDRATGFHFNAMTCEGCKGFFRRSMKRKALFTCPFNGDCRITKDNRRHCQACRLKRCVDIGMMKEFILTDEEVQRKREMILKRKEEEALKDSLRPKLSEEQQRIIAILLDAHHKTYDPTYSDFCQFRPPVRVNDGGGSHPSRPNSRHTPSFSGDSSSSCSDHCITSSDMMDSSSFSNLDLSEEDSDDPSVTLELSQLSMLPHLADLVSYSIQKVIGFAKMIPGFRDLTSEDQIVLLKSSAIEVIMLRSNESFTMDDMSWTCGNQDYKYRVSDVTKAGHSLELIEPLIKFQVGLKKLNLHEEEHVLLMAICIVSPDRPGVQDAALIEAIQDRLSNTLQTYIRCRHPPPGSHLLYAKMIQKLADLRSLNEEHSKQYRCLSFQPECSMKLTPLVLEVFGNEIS
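Measured by FP: displacement of SRC2-3 coactivator peptide from VDR by library compounds, following a two-hour ambient incubation.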
* hit, by the source's call; ? = inconclusive; [ ] = another dose, or the depositor's remark. On the % scale 0 is the no-effect control and ±100 the full control effect; potency means the concentration at half of the fitted maximal effect. This is a subset, so the mix of outcomes need not match the whole.

SMILES	VDR inhibitor
CCOc1ccc(S(=O)(=O)N2CCOCC2)cc1NC(=O)C1CSC2(C)CCC(=O)N12 (configuration not stated)	-6%
Fc1ccccc1Cn1nnc(-c2ccc3c(c2)OCO3)n1	2%
COc1ccc(Cl)cc1C(=O)Nc1ccc(Br)c(C)n1	-15%
CN(C(=O)CN1CCCCCC1)c1c(N)n(Cc2ccccc2)c(=O)[nH]c1=O	-2%
O=C(Oc1ccccc1)c1cccc2cccnc12	-22%
CC(C)N1CCC2(CC1)Oc1ccc(Br)cc1C1CC(c3cccnc3)=NN12 (configuration not stated)	-7%
O=C(O)CNC(=O)C1COc2ccccc2O1 (configuration not stated)	-4%
O=C(Nc1nnc(CC(=O)N2CCOCC2)s1)C1COc2ccccc2O1 (configuration not stated)	-14%
O=C(NCCc1ccccc1)[C@@H]1CC=C[C@@H]2CCN(C3CCCCC3)C(=O)[C@@H]21	5%
Cc1ccccc1/C=N/NC(=O)c1sccc1C	?
Cc1ccc(NC(=O)c2c(C)oc3ncnc(N4CCCCC4)c23)c(C)c1	3%
Cc1ccc(C(C(=O)NC2CCCCC2)N(CC2CCCO2)C(=O)CNC(=O)c2ccco2)cc1 (configuration not stated)	-11%
Cc1nn(-c2ccccc2)c2c1c(C)c(CCC(=O)NCC1CCCO1)c(=O)n2C (configuration not stated)	4%
Cc1cccc(C)c1OCC(=O)Nc1cccc(C(=O)O)c1	-6%
CS(=O)(=O)N1CCN(c2ccccc2NC(=O)c2cccc3ccccc23)CC1	-1%
CC(C)Cc1ccc(S(=O)(=O)Nc2cc3c(cc2N2CCOCC2)n(C)c(=O)c(=O)n3C)cc1	17%
Cc1cccc(NC(=O)c2ccc(-c3ccccc3)s2)c1	0%
CCOc1cc(CN2CCN(C(=O)c3cccc4ccccc34)CC2)ccc1OC	-18%
NC(=O)COC(=O)Cc1coc2cc3c(cc12)CCC3	-4%
COCCn1c(SCC(=O)Nc2ccccc2F)nc2c([nH]c3ccccc32)c1=O	-8%
Cc1ccc(S(=O)(=O)N2[C@@H](c3cccc(C)c3)C(C(=O)O)=C[C@H]2C(C)(C)C)cc1	-15%
COc1ccc(OC)c(S(=O)(=O)N2CCC3(CC2)CC(=O)c2ccccc2O3)c1	3%
Oc1ccc(C[C@H]2CNCCN2CCC23CC4CC(CC(C4)C2)C3)cc1	-16%
CS(=O)(=O)N1CCC(n2c(C(F)(F)F)nc3cccnc32)CC1	-5%
O=C(NCc1ccccc1)c1c2c(nc3ccccc13)C(=O)N(C1CCCCC1)C2	6%

Individual results from the list.
Cc1nn(-c2ccccc2)c2c1c(C)c(CCC(=O)NCC1CCCO1)c(=O)n2C (configuration not stated) in VDR inhibitor: 4%
O=C(O)CNC(=O)C1COc2ccccc2O1 (configuration not stated) in VDR inhibitor: -4%

Part of the list above, with each value named.
SMILES: O=C(O)CNC(=O)C1COc2ccccc2O1 (configuration not stated)
  VDR inhibitor: -4%

SMILES: Cc1ccc(C(C(=O)NC2CCCCC2)N(CC2CCCO2)C(=O)CNC(=O)c2ccco2)cc1 (configuration not stated)
  VDR inhibitor: -11%

The listing picks up; the 5 compounds before the break are reprinted first.
SMILES	VDR inhibitor
Cc1ccc(S(=O)(=O)N2[C@@H](c3cccc(C)c3)C(C(=O)O)=C[C@H]2C(C)(C)C)cc1	-15%
COc1ccc(OC)c(S(=O)(=O)N2CCC3(CC2)CC(=O)c2ccccc2O3)c1	3%
Oc1ccc(C[C@H]2CNCCN2CCC23CC4CC(CC(C4)C2)C3)cc1	-16%
CS(=O)(=O)N1CCC(n2c(C(F)(F)F)nc3cccnc32)CC1	-5%
O=C(NCc1ccccc1)c1c2c(nc3ccccc13)C(=O)N(C1CCCCC1)C2	6%
COc1ccc2cnoc(=O)c2c1OC	-1%
CCOC(=O)Cn1cc(C#N)c(=O)[nH]c1=O	-4%
CC(Oc1cc2oc(=O)c3c(c2cc1Cl)CCCC3)C(=O)NCc1ccncc1 (configuration not stated)	-15%
CCCCOc1ccc(C(C)NC(=O)C2CCCN(S(=O)(=O)CCC)C2)cc1 (configuration not stated)	7%
CC(C)C(NS(=O)(=O)c1ccc2c(c1)Cc1cc(S(=O)(=O)NC(C(=O)O)C(C)C)ccc1-2)C(=O)O (configuration not stated)	-15%
CC1CCCCC1NC(=O)CCCN1C(=O)c2ccccc2C1=O (configuration not stated)	-8%
O=C(N/N=C/c1c(F)cccc1Cl)c1ccc(Cn2cc(Br)cn2)o1	-20%
O=C(Nn1c(Cc2cccs2)nc2ccccc2c1=O)c1ccc(F)c(F)c1	7%
COCc1ccc(-c2c(-c3ccsc3)sc3ccccc23)cc1	-11%
CC1CC=CC2C1C(=O)N(Cc1ccccc1)C2c1ccc(-c2ccc(F)cc2)cc1F (configuration not stated)	-14%
Cc1cc(C)cc(N2CC34C=CC(O3)C(C(=O)OCC(=O)NCc3ccco3)C4C2=O)c1 (configuration not stated)	-11%
CC(Cc1c[nH]c2ccccc12)NC(N)=O (configuration not stated)	2%
COC(=O)[C@@]12CCCCN1[C@H](c1ccc(-c3cc(C(C)=O)cs3)cc1)[C@H]1C(=O)N(C)C(=O)[C@H]12	-4%
Cc1ccc(CNCc2c(C(=O)O)n(Cc3ccccc3C)c3cc(C)ccc23)cc1	9%
COc1ccc(-c2nnc(SCC(=O)Nc3ccc(C)c(Cl)c3)nc2-c2ccc(OC)c(OC)c2)cc1OC	17%
Nc1cnn(Cc2ccccc2F)c1	?
CC(C)=C1C2CCC1C1C(=O)N(c3nc(-c4ccc(F)cc4)c(C)s3)C(=O)C21 (configuration not stated)	?
CCc1ccccc1NC(=O)Nc1ccon1	-17%
CC(NC(=O)c1cccc(Cn2cc([N+](=O)[O-])cn2)c1)c1ccc(C(C)(C)C)cc1 (configuration not stated)	9%
CCn1c(=S)ccc2ccc(OC)cc21	12%
CC(C)CN(C)C(=O)CCc1nnc(Cc2ccc(-c3ccccc3)cc2)o1	2%
Cc1cc(C(=O)CSc2nnc(-c3cccs3)o2)c(C)n1-c1ccccc1	-8%
Cc1cc(C)c2c(=O)[nH]c(SCC(=O)Nc3cccc(S(=O)(=O)N(C)C)c3)nc2n1	-11%
O=C(Cn1cnc2c(cnn2-c2ccc(Cl)cc2)c1=O)NCCc1ccccc1	2%
Cc1ccc(-n2ncc3c(NCCCN4CCOCC4)ncnc32)cc1C	9%

Continued.
SMILES	VDR inhibitor
CCOc1cc(NS(=O)(=O)c2ccc(Cl)cc2)c(OCC)cc1NC(=O)CC(C)C	5%
Cc1cccc(N2CCN(c3nc4ccc(C)cc4n4cnnc34)CC2C)c1 (configuration not stated)	-13%
COC(=O)CCN(C(=O)c1ccc(N2CCCCC2)c([N+](=O)[O-])c1)c1ccccn1	15%
Cc1onc(C(=O)NCc2ccccn2)c1[N+](=O)[O-]	?
CC(=O)c1c(O)cc(=O)n(-c2ccccc2)c1-c1ccc(Cl)cc1	-17%
Cc1ccc(S(=O)(=O)N2CCC(C(=O)OC(C)C(=O)NC(N)=O)CC2)cc1C (configuration not stated)	-4%
O=C1CCCN1CC(O)CS(=O)(=O)Cc1ccccc1Cl (configuration not stated)	-2%
Clc1ccc(-c2nnc(NCc3ccccc3)c3ccccc23)cc1	13%
Cc1nnc(N2C(=O)c3oc4ccccc4c(=O)c3C2c2ccc(F)cc2)s1 (configuration not stated)	6%
CCOC(=O)N1CCN(S(=O)(=O)c2ccc3c(c2)CC(C)N3C(C)=O)CC1 (configuration not stated)	3%
COc1ccc(C)cc1NC(=O)C(Sc1nncn1C)c1ccccc1 (configuration not stated)	2%
Cc1ccccc1C(=O)N/N=C1/SCC(=O)N1Cc1ccc2c(c1)OCO2	4%
COc1ccc(N2CCN(C(=O)C3CCN(S(=O)(=O)Cc4ccccc4)CC3)CC2)cc1	9%
COc1ccc(-n2ccnc2CN2CCN(C3CCCC3)C(CCO)C2)cc1 (configuration not stated)	-6%
COC(=O)CSc1nnc(C)n1-c1cccc(OC)c1	-6%
Cc1cc(C)cc(NCc2cc3c(cc2[N+](=O)[O-])OCO3)c1	-10%
COC(=O)CN1C(c2ccccc2)=Nc2ccc(Cl)cc2C1c1ccccc1 (configuration not stated)	-2%
CC(=O)N/C(=C/c1ccc2c(c1)OCO2)C(=O)O	-1%
Cc1onc(-c2ccccc2)c1C(=O)c1c[nH]c(C(=O)NCc2ccccn2)c1	-23%
O=C(NCC1CCCO1)C(c1cccs1)N(C(=O)c1ccc(-c2ccccc2)[nH]1)C1CCCC1 (configuration not stated)	-11%
C=CCNC(=S)N(C1CCCCC1)C1CCCCC1	-11%
Cc1cc2c(s1)c1cnn(CC(=O)NCCc3ccccc3)c(=O)c1n2C	-8%
C/C(=N\NC(=O)c1cccc2ccccc12)c1cccnc1	-8%
CCOc1ccccc1C(=O)NCC(=O)NCC(c1ccc(OC)cc1)N1CCOCC1 (configuration not stated)	-12%
COc1ccc(C(C)=O)cc1COC(=O)CSCC(=O)Nc1ccc(C)cc1	-16%

(continued)
SMILES	VDR inhibitor
COc1ccccc1-c1ccc(C(=O)O)o1	?
CCCCc1cc(=O)oc2cc(C)cc(OCC(=O)NC(Cc3ccc(Cl)cc3)C(=O)O)c12 (configuration not stated)	-25%
CC(C)CC(=O)Nc1ccc(-c2nc3ccccc3c(=O)[nH]2)cc1	10%
COc1ccccc1NC(=S)N(C(C)C)C(C)c1ccccn1 (configuration not stated)	-2%
CCCOc1ccc(S(=O)(=O)n2cc(F)c(=O)[nH]c2=O)cc1	10%
O=C(CSc1ccc(/C=N/NC(=O)c2cccc(F)c2)o1)Nc1ccccc1	4%
O=C(O)Cc1ccc2oc(-c3ccccn3)nc2c1	36%[activator]
CC(=O)NC(Cc1ccccc1F)C(=O)NC1CCN(C(=O)NCc2ccccc2)CC1 (configuration not stated)	21%
O=C(Cc1cccs1)N1CCC(c2nc3c(nnn3Cc3ccccc3Cl)c(=O)[nH]2)CC1	11%
CN(C)c1nc(N)nc(-c2cccnc2)n1	-20%
COc1ccc(CNC(=S)Nc2cccc(C)c2)cc1	3%
COc1ccccc1CNC(=O)COC(=O)C1CCN(c2ccc(C(F)(F)F)cn2)CC1	-5%
Cc1nc2nncn2c(N2CCN(c3ccccc3)CC2)c1C	-2%
Cc1nn(CC(=O)NCc2ccccc2Cl)c(=O)c2cccn12	1%
O=C(O)c1cc(Br)ccn1	-9%
COc1ccc(CCNS(=O)(=O)c2cc(/C=C/C(=O)O)ccc2C)cc1OC	?
Cc1cccn2c(=O)c(C(=O)NCCc3ccc(S(N)(=O)=O)cc3)c(O)nc12	-20%
CC1CC2=C(NC(=S)NC2c2cccc(F)c2)/C(=C/c2cccc(F)c2)C1 (configuration not stated)	-16%
Cc1cc2n(n1)SC(Nc1ccc(F)cc1)N2 (configuration not stated)	-5%
CCOCCc1nnc(NC(=O)CCc2ccccc2)s1	13%
O=C(CCNc1ccc(Cl)c(C(F)(F)F)c1)c1ccco1	-7%
O=C(N=Nc1c(O)n(Cc2ccccc2)c2ccccc12)c1ccc(O)cc1	-19%
CC(C)(C)C1(C)OC(C(N)=O)C(C(N)=O)O1 (configuration not stated)	0%
Clc1ccccc1-c1nc2ccccc2[nH]1	-19%
CCN(CC)C(=O)C[n+]1cccc(C(N)=O)c1	-8%

Continued.
SMILES	VDR inhibitor
Cc1ccccc1OCC(=O)NCCCNC(=O)c1cccnc1	?
O=C1CCc2cc(NS(=O)(=O)c3ccc([N+](=O)[O-])cc3)cc3c2N1CCC3	-1%
O=C(NC1CCCCC1)c1cnn2c1NC(=C1CC1)C=C2C(F)F	7%
O=S(=O)(Nc1cccc(-c2ccc(N3CCCCCC3)nn2)c1)c1ccccc1Cl	-2%
CC1(C(=O)N(CC(=O)NC2CCCC2)Cc2ccccc2)CC(=O)N=C2C=CC=CN21 (configuration not stated)	2%
COc1ccc(OC)c2[nH]c(=O)c(CCNC(=O)C(C)C)cc12	0%
Cc1ccc2nsnc2c1S(=O)(=O)N1CCN(C(=O)C2CCCO2)CC1 (configuration not stated)	11%
CC(C)C(=O)NCCc1nc2ccccc2n1CCc1ccccc1	-2%
COc1cccc(NC(=O)c2ocnc2C)c1	-5%
O=C(CCc1nc2ccccc2[nH]1)Nc1ccc(F)cc1	4%
CCCC(=O)Nc1cc(OC)c(C(=O)OC)cc1Cl	?
COC(=O)c1cccnc1-n1c(=O)c2cccnc2n(CC(=O)Nc2ccccc2F)c1=O	-4%
CC1CCN(CC(=O)Nc2ccc(Cl)cc2[N+](=O)[O-])CC1	-16%
CCOc1nc(NCCc2ccc(OC)c(OC)c2)nc(NC(C)(C)CO)n1	-23%
CCc1ccc(CN(Cc2ccco2)C(=O)COc2ccc(Cl)cc2C)cc1	1%
O=C(CSc1nnc(C2COc3ccccc3O2)o1)Nc1nccs1 (configuration not stated)	-20%
COc1ccc(C)cc1NC(=O)CSc1nnc(-c2ccccn2)n1Cc1ccco1	-1%
Cc1nc2cccnc2n1C1CCN(C(=O)Nc2ccccc2C(F)(F)F)CC1	18%
COCCN(C(=O)c1cc(OC)c(OC)c(OC)c1)c1c(N)n(Cc2ccccc2)c(=O)[nH]c1=O	-11%
Nc1ncnc2c1ncn2C1OC(CO)C(O)C1N (configuration not stated)	9%
NS(=O)(=O)c1ccc(NC(=O)CN2CCN(S(=O)(=O)c3cccs3)CC2)cc1	-6%
